KCNQ2 pot: potentiators of rat KCNQ2 potassium channel. B-score at 10 µM. CHO-K1 KCNQ2, FluxOR thallium flux fluorescence; active compounds read high. 310,000 compounds, 0.54% hits. Potassium voltage-gated channel subfamily KQT member 2 (Rattus norvegicus), O88943;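 active = fluorescence ratio B-score at least 3 SD of library B-scores, with initial fluorescence B-score within 3 SD, cut at about 5.3 in these data; same plate scores as AID 2156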;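 also: B-score of peak minus minimum over baseline fluorescence ratio after K+ and Tl+ stimulus; positive B-score means potentiation of KCNQ2 with more thallium influx and brighter signal; only the inactives scoring about 0 or higher are listed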
Target sequence (O88943 whole entry, looked up): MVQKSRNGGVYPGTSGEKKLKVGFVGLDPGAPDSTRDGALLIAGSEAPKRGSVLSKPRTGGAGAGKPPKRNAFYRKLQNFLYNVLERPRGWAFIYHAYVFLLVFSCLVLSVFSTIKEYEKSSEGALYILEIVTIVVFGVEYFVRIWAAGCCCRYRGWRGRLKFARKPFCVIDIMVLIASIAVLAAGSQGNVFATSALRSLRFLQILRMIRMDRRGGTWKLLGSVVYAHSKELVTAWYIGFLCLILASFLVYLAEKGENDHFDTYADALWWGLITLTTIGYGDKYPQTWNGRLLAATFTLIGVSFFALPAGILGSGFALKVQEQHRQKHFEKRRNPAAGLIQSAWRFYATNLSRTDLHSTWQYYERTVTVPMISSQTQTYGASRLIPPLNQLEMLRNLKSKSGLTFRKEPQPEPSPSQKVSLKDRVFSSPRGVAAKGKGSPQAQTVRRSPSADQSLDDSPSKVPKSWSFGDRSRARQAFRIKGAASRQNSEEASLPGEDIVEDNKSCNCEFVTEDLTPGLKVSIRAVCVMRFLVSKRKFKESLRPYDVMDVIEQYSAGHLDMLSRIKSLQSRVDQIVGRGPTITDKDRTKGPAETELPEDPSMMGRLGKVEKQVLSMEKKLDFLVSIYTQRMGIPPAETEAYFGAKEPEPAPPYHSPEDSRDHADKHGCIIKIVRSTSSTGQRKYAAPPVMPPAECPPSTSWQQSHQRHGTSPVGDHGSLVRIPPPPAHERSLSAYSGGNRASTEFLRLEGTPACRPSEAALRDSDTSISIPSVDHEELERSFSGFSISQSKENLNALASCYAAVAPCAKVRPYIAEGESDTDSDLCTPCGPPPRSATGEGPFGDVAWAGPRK
KCNQ2 pot baseline: further read-out of KCNQ2 pot, marked with its call; B-score; compound at 10 µM; measured here: initial fluorescence intensity artifact check;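 brightness before thallium and not channel activity; 0 = typical well and far values either way flag optical interference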
* = called active by the depositor. These rows are one share of the data; the hit share may differ from the screen's.

SMILES	KCNQ2 pot	KCNQ2 pot baseline
O=C(C1CC(c2ccc(F)cc2)=NO1)N1CCN(Cc2ccccc2)CC1 (stereo unspecified)	0.01	2.26
COc1ccc(-c2nnn(CC(=O)N3CCN(c4ccc(F)cc4)CC3)n2)cc1	1.19	1.89
CC[C@@H](C)C(N)c1cn([C@@H](CCC(=O)O)C(=O)N2CCNCC2)nn1 (stereo partly specified)	0.08	0.06
Cc1sc2nc(CN3CCCCC3)nc(N3CCN(C(=O)c4ccco4)CC3)c2c1C	0.98	-0.19
Cc1ccc(S(=O)(=O)N(Cc2cccc(F)c2)C(=O)N2CCN(C)CC2)cc1	0.87	1.59
COC(=O)CSc1nnc(-c2sc3cc(OC)ccc3c2Cl)n1C	0.82	-1.3
Cc1nnc(-c2ccc(Cl)cc2)[nH]c1=O	0.62	-1.03
O=C(Nc1cccnc1)C1CC(c2ccccc2O)=NO1 (stereo unspecified)	1	2.03
CCOC(=O)C1CCN(C(C)=C2C(=O)c3ccccc3C2=O)CC1	1.11	-1.55
COc1ccc(-c2cccc(C(=O)Nc3ccc(OC)c(OC)c3)c2)cc1	0.04	0.42
O=C(NC1CCOCC1)C1CCC(=O)N(Cc2cccc(C(F)(F)F)c2)C1 (stereo unspecified)	0.74	2.14
CSc1nc(C)c2c(n1)N(c1ccc(C(C)C)cc1)CC2	1.06	1.71
CCc1ccccc1NC(=O)c1ccccc1N1C(=O)C2C3C=CC(C3)C2C1=O (stereo unspecified)	0.77	-2.11
COc1ccccc1NC(=S)N1CCN(c2cccc(C)c2C)CC1	0.8	1.61
COc1ccccc1N1C(=O)CC(Sc2n[nH]c(-c3cccc(C)c3)n2)C1=O (stereo unspecified)	0.93	0.71
CC(=O)c1cccc(NC(=S)NCCCCc2ccccc2)c1	0.03	0.93
O=C(O)C[C@@H](CNC(=O)COc1ccc2ccc(=O)oc2c1)c1ccc(Cl)cc1	0.07	-0.94
COCCCNC(=O)CCS(=O)(=O)Cc1ccc(C)cc1	0.81	-0.63
C#CCN1C(=O)C(O)(CC(=O)c2cccc(OC)c2)c2ccccc21 (stereo unspecified)	0.08	0.08
CCOC(=O)C1=C(CSc2nccn2C)NC(=O)NC1c1ccc2c(c1)OCO2 (stereo unspecified)	0.32	0.17
COc1ccccc1C(=O)COC(=O)CN1C(=O)NC2(CCCC2)C1=O	0.02	-2.06
CCOc1ccc(C(=O)Nc2nnc(SCC(=O)NCC3CCCO3)s2)cc1 (stereo unspecified)	0.43	2.11
CCCCOc1ccc(C(O)C(CN2CCCCC2)c2ccccc2)cc1 (stereo unspecified)	0.03	1.21
Cc1c(NCc2cccnc2)cccc1C(=O)O	2.01	-0.96
CC(O)CNCCCOc1ccccc1OCc1ccccc1 (stereo unspecified)	0.29	0.01
Cc1c(-c2ncn[nH]2)sc(C#N)c1-c1ccccc1	0.3	-1.3
CCC1Nc2ncnc(N3CCOCC3)c2N(Cc2ccc(C)cc2)C1=O (stereo unspecified)	2.41	-2.32
CCSc1ccccc1C(=O)NC1CCCCC1	0.35	-0.05
NC(=O)CC(NC(=O)Cc1ccc(Cl)cc1)c1ccc(NC2CCN(Cc3ccccc3)CC2)c([N+](=O)[O-])c1 (stereo unspecified)	0.73	-0.22
Clc1cccc(OCCCCCN2CCOCC2)c1	1.44	2.18
Cc1nc2ccc(NC(=O)Cc3cccs3)cc2s1	0.14	0.81
CCCn1c(SCC(=O)NC23CC4CC(CC(C4)C2)C3)n[nH]c1=O	0.31	-0.1
S=C(NCCc1ccccc1)NCCN1CCOCC1	0.32	0.87
O=C(Cc1ccccc1[N+](=O)[O-])NCCC1=CCCCC1	0.39	-0.68
CCOC(=O)C1=C(C(F)(F)F)Nc2ncnn2C1c1cc(OC)c(OC)cc1OC (stereo unspecified)	1.15	1.59
CCOC(=O)C(CC)/C(C)=N\NC(=O)CCC(=O)Nc1ccc(Cl)cc1Cl (stereo unspecified)	0.41	1.77
CCCc1cc(C(=O)OC)c(NC(=O)CCC(=O)O)s1	0.14	2.75
O=C1c2ccccc2C(=O)N1OS(=O)(=O)c1ccc(F)cc1	0.68	-0.38
Cc1ccc(C)c(S(=O)(=O)ON2C(=O)c3ccccc3C2=O)c1	0.27	-0.16
COc1ccc(OC)c(NC(=O)Cc2cccs2)c1	2.26	0.85
CC(C)(C)C(=O)NC1CC2CCCC(C1)N2C(=O)Nc1ccccc1 (stereo unspecified)	0.21	2.03
N#Cc1c(-n2cccc2)cccc1-n1cccc1	1.83	-1.1
COc1ccc(C(=O)NC(Cn2ccnc2)C(C)(C)C)cc1OC1CCN(C(C)C)CC1 (stereo unspecified)	0.01	2.65
Cc1ccc(NS(=O)(=O)c2ccc(OCC(=O)NCc3ccccn3)cc2)cc1	0.19	0.24
Cc1nn(-c2ccc(C(=O)Nc3nnc(C4CC4)s3)cc2)c(C)c1Cl	1.28	-0.13

Reformatted with the structure last: part of the list above
| KCNQ2 pot | KCNQ2 pot baseline | mol |
| --- | --- | --- |
| 0.93 | 0.71 | COc1ccccc1N1C(=O)CC(Sc2n[nH]c(-c3cccc(C)c3)n2)C1=O (stereo unspecified) |
| 0.03 | 0.93 | CC(=O)c1cccc(NC(=S)NCCCCc2ccccc2)c1 |
| 0.07 | -0.94 | O=C(O)C[C@@H](CNC(=O)COc1ccc2ccc(=O)oc2c1)c1ccc(Cl)cc1 |
| 0.81 | -0.63 | COCCCNC(=O)CCS(=O)(=O)Cc1ccc(C)cc1 |

Next section
SMILES	KCNQ2 pot	KCNQ2 pot baseline
CCN1CCN(C(=O)N(CC(=O)Nc2ccc(C(N)=O)cc2)S(=O)(=O)c2ccc(C)cc2)CC1	0.11	-0.54
CN1C(=O)N(c2nnc(C(C)(C)C)s2)C(=O)C1c1ccccc1 (stereo unspecified)	1.22	0.12
O=C(CSc1ccccc1)NCc1ccco1	0.83	0.75
N#Cc1ccccc1S(=O)(=O)N1CCN(CC(O)c2ccccc2)CC1 (stereo unspecified)	0.52	0.13
Cc1cc2c(c(=O)o1)C1(C(=O)N(CC(=O)O)c3ccccc31)C(C#N)=C(N)O2 (stereo unspecified)	0.33	1.16
O=C(Nc1cccc(F)c1)c1cccc(S(=O)(=O)N2CCOCC2)c1	0.16	-1.6
CCOC(=O)c1sc(=S)n(-c2ccc(F)c(F)c2)c1N	0.51	-0.17
O=C(NC1CCC(O)CC1)c1ccc(-c2ccc([N+](=O)[O-])cc2)o1 (stereo unspecified)	1.01	0
Cc1ccsc1/C=N\NC(=O)CCc1c(C)n[nH]c1C	0.25	-0.53
CCC1=NN2C(=N)/C(=C\c3ccc(OCCOc4ccccc4)c(OC)c3)C(=O)N=C2S1	0.44	1.33
Cc1cc(C)c2c(CC(=O)O)c(C)[nH]c2c1	0.06	0
CC(C)Oc1ccccc1NC(=O)CSc1nccn1C	2.01	1.86
CCc1nnc(NC(=O)C2CCCN2C(=O)Nc2ccc(C)cc2)s1 (stereo unspecified)	0.46	0.61
O=C(NCCc1ccccc1F)C1CC(O)CN1C(=O)Nc1ccccc1 (stereo unspecified)	0.16	0.17
CC(O)CNCCOc1ccccc1-c1ccccc1 (stereo unspecified)	0.69	1.36
COc1ccccc1N1CCN(C2CCCN(C(=O)CCc3cnn(C)c3)C2)CC1 (stereo unspecified)	1.18	0.34
CCC(CC)NC(=O)Nc1cccc(C)c1C	0.01	0.92
COc1ccc2oc(=Nc3ccc(C(=O)O)cc3)c(C(=O)NCc3ccco3)cc2c1	2.97	-1.73
NS(=O)(=O)c1ccc(NNC(=O)c2ccccc2)cc1	0.48	1.24
COc1ccccc1N1CCN(CC(=O)N2CCCC2)CC1	1.64	0.89
O=C(Cn1c(=O)sc2ccccc21)Nc1nc2c(s1)CCCC2	0.44	1.32
O=C(NN=C1CCCC1)c1ccccc1[N+](=O)[O-]	1.92	-0.98
CCOC(=O)CSc1nc2c(c(=O)[nH]c(=O)n2C)n1Cc1ccccc1	0.77	0.78
O=C(NCCCN1CCCC1=O)c1ccc([N+](=O)[O-])s1	0.49	-0.01
CCN(CC)S(=O)(=O)c1ccc(N2CCOCC2)c(NS(=O)(=O)c2ccc(C)c(C)c2)c1	0.13	-1.24
Cc1cccc(NC(=S)N(CCN(C)C)C(C)c2ccco2)c1 (stereo unspecified)	0.42	-0.7
CCCC(C)C(=O)Nc1ccc(S(=O)(=O)Nc2nccs2)cc1 (stereo unspecified)	0.5	1.28
Cc1cc(N2CCOCC2)ccc1/C=C1/SC(=O)NC1=O	1.2	-1.01
O=C(CN1CCCC1)Nc1ccc(F)cc1	1.99	-1.94
C=CCN1C(=O)C(C)(C)N(C(C)=O)c2ccccc21	0.08	0

A different layout for four compounds above.
compound | KCNQ2 pot | KCNQ2 pot baseline
COc1ccc2oc(=Nc3ccc(C(=O)O)cc3)c(C(=O)NCc3ccco3)cc2c1 | 2.97 | -1.73
NS(=O)(=O)c1ccc(NNC(=O)c2ccccc2)cc1 | 0.48 | 1.24
COc1ccccc1N1CCN(CC(=O)N2CCCC2)CC1 | 1.64 | 0.89
O=C(Cn1c(=O)sc2ccccc21)Nc1nc2c(s1)CCCC2 | 0.44 | 1.32

Complete entries, looked up by structure:
C=CCN1C(=O)C(C)(C)N(C(C)=O)c2ccccc21 reads KCNQ2 pot: 0.08; KCNQ2 pot baseline: 0
Cc1cccc(NC(=S)N(CCN(C)C)C(C)c2ccco2)c1 (stereo unspecified) reads KCNQ2 pot: 0.42; KCNQ2 pot baseline: -0.7

New compounds follow
SMILES	KCNQ2 pot	KCNQ2 pot baseline
Cc1ccc(NC(=S)NNC(=O)c2c(Cl)c(C)nn2C)cc1	0.92	-0.5
Cc1cc(C(=O)COC(=O)C2=COCCO2)c(C)n1-c1ccc2c(c1)OCO2	1.07	-0.41
Cc1ccc2cccc(NC3OC(=O)c4ccccc43)c2n1 (stereo unspecified)	1.05	-1.13
S=c1[nH]nc(-c2ccco2)n1/N=C/c1ccccc1Cl	0.48	0.37
Cc1oc(-c2ccccc2F)nc1CS(=O)CC(=O)NCc1ccc2c(c1)OCO2 (stereo unspecified)	0.91	-1.39
Cn1cnnc1SCCCN1C(=O)c2cccc3cccc(c23)C1=O	1.1	0.35
O=C(O)/C=C/C(=O)NC1CCCCCCCCCCC1	1.2	-1.06
Cc1ccsc1/C=N/NC(=O)Cn1cnc2ccccc21	1.49	-1.24
Cc1ccc(-n2nnc3c(=O)n(CC(=O)NCc4ccccc4)cnc32)cc1	0.02	-0.07
CS(=O)(=O)N(CC(=O)NCc1cccnc1)C1CCCCC1	1.39	-0.56
O=C(O)CC1(CC(=O)Nc2ccc(Oc3cccc(C(F)(F)F)c3)nc2)CCCC1	1.89	0.35
COc1ccc(OCC(=O)N/N=C2/C=C(C)CC2)cc1	1.98	-0.15
O=C1c2cccnc2C(=O)N1c1ccccc1-c1ccccc1	1.99	-0.9
Cc1ccc(NC(=O)CSc2nc(=O)n(CCN3CCOCC3)c3c2CCCC3)cc1	0.59	-1.6
CS(=O)(=O)c1ccc(-n2c(=O)n(Cc3ccccc3)c(=O)c3[nH]cnc32)cc1	1.56	-0.51
O=c1[nH][nH]c(-c2ccccc2)c1C=Nc1ccccc1Cl	1.37	-0.23
CCc1nnc(NC(=O)c2cc(S(=O)(=O)N(CC)CC)ccc2Cl)s1	2.47	0.71
CC(=O)N1CCN(C(=O)c2cc(-c3ccc(C)o3)nc3ccccc23)CC1	1.57	-0.65
CCOc1c2ccc(C(=O)N[C@H](C)C3CCCCC3)cc2nn1CC	2.75	-0.68
CC(=O)c1ccc(OCCCC(=O)NCCc2ccccc2)cc1	1.82	-0.25
CSc1nccc(-c2nn(-c3ccc(C)cc3)ccc2=O)n1	2.05	1.29
CCOC(=O)c1cccc(NC(=O)c2ccc(NC(=O)C3CCCO3)cc2)c1 (stereo unspecified)	1.62	0.02
CC1CC(Nc2ccccc2N)=CC(=O)O1 (stereo unspecified)	0.53	0.72
CCN(CC)CCn1c2c(c(SCC(=O)Nc3ccc(F)c(F)c3)nc1=O)CCC2	0.32	-1.9
CCc1ccc(C)c(OC(=O)c2cncc(Br)c2)c1	0.75	-0.38
Cc1ccc(OCCC(=O)OCc2csc(CC(=O)Nc3ccccc3C)n2)cc1	1	-0.01
CCc1c(C)nc2ncnn2c1N1CCCC(C(=O)NCc2ccco2)C1 (stereo unspecified)	1.38	0.92
CCOC(=O)C1C(c2cc(OC)c(OC)c(OC)c2)NC(=S)NC1(O)C(F)(F)F (stereo unspecified)	0.85	0.44
CCOc1cccc(-c2c(C(=O)N/N=C/c3ccc(C)o3)nnn2-c2nonc2N)c1	0.74	-0.02
CCCCCn1c(=O)[nH]c2cc(C(=O)O)ccc2c1=O	0.09	0.01
COc1cccc(-c2nc(CS(=O)CC(=O)NCc3ccc(F)cc3)c(C)o2)c1 (stereo unspecified)	1.01	0.31
CN(CCc1ccccc1)C1CCCN(S(=O)(=O)N(C)C)C1 (stereo unspecified)	1.02	1.71
O=c1[nH]c2cc(Cl)cc(Cl)c2[nH]c1=O	1.19	-0.02
O=C(O)CCn1c(SCc2ccccc2)nc2ccccc21	0.07	0.65
O=C(NCCN1CCOCC1)/C(=C/c1ccccc1)NC(=O)c1ccccc1	0.5	-0.07
O=C(NCc1ccc(F)cc1)c1cc(-c2ccncc2)nc2ccccc12	0.95	-0.4
O=C(COC(=O)Cc1ccc(F)cc1)NCCc1ccccc1	0.17	1.03
CCCCc1nnc(NC(=O)Cc2ccc(OC)c(S(=O)(=O)N3CCOCC3)c2)s1	0.95	0.06
CC(C)(C)n1nc2c(c1NC(=O)c1cc([N+](=O)[O-])ccc1Cl)CS(=O)(=O)C2	2.04	-1.9
CCNc1nc(NCC)n2c(SCC(=O)O)nnc2n1	0.03	1.5

High-throughput results deposited in PubChem by Johns Hopkins Ion Channel Center.
